# StopGo RLuc – Primary qHTS Assay for Foot and Mouth Disease Virus Antivirals against NCGC Sytravon and CBC Compound Libraries: Renilla Luciferase Signal. 0.32% of 120,000 active. AID 1745857, 2022. Potency, µM (series often up to 57.5 µM), without a hit: top-dose signal change, negative = less light. HEK cells with a luciferase reporter of 2A StopGo recoding; active means well fitted falling curve with a large enough effect; inconclusive means small, poorly fitted or top-dose-only effect; inactive means no such curve, though single readings can be large or run the other way; note: nearly all actives have a fitted effect of over 55% in size; overnight with compound
# 2A firefly – Primary qHTS Assay for Foot and Mouth Disease Virus Antivirals against NCGC Sytravon and CBC Compound Libraries: Firefly Luciferase Signal | HEK cells with a luciferase reporter of 2A StopGo recoding | Potency, µM (series often up to 57.5 µM), for the others: at the highest dose signal change, negative = less light | 0.23% of 120,000 active | AID 1745856, 2022; active = well fitted falling curve with a large enough effect; inconclusive = small, poorly fitted or top-dose-only effect; inactive = no such curve, though single readings can be large or run the other way; note: nearly all actives have a fitted effect of over 60% in size; overnight with compound
# Starred values were filed as active, the others as inactive; ? = inconclusive; [ ] = remark or other dose. % is set by controls: 0 for no effect and ±100 for the full control effect; potency is the fitted concentration of half-maximal effect. An unsorted share of the library. Share with any hit: about 0.55%.
# Sequence of screens – 2A firefly | StopGo RLuc
- Cc1ccc(NC(=O)C(Sc2cccc[n+]2[O-])c2ccccc2)cc1 (stereo not given)
    24% | 29%
- CCCCCCNC(=S)Nc1ccc(Br)cc1
    51%[activator] | -6%
- CC(C)c1ccc2occ(CC(=O)Nc3cccc(C(F)(F)F)c3)c2c1
    -20% | 130%[activator]
- Cc1ccc(-c2cn3c(n2)sc2cc(C(=O)NC4CCCCCC4)ccc23)c(C)c1
    20% | -8%
- Clc1cccc(-n2ncc3c(NCCCc4ccccc4)ncnc32)c1
    83%[activator] | 3%
- Cc1ccc(S(=O)(=O)C(CC(=O)c2ccc(F)cc2)c2cccs2)cc1 (stereo not given)
    20% | 16%
- O=C(c1ccc2c(c1)N(Cc1ccccc1F)C(=O)c1ccccc1S2(=O)=O)N1CCN(c2ccccn2)CC1
    -14% | -4%
- CCOC(=O)c1cc(S(=O)(=O)N2CCN(c3ccc(F)cc3)CC2)[nH]n1
    0% | 178%[activator]
- CCOCc1cc(C(=O)O)ccc1OC
    18% | -10%[1.06 µM]
- Cn1cnc(S(=O)(=O)N2CCC(C(=O)N3CCN(c4ccc(Cl)cc4)CC3)CC2)c1
    -14% | -3%
- COc1ccc(OC)c(CCNC(=O)NCc2noc3ccccc23)c1
    13% | -5%
- CCN(CC)CCNC(=O)c1ccc2nc(CCc3ccccc3)oc2c1
    73%[activator] | -5%
- COc1cc(C(=O)N2CCC(N3CCCCCC3)CC2)cc(OC)c1OC
    1% | 7%
- O=C(Nc1cccc(Cl)c1)C1CCN(c2nc3ccccc3nc2C(F)(F)F)CC1
    -11% | -3%
- O[C@@H](c1cc(C(F)(F)F)nc2c(C(F)(F)F)cccc12)[C@H]1CCCCN1
    ? | ?
- O=Cc1ccc(OCc2ccccc2)cc1
    175%[activator] | 4%
- CCc1cccc(NC(=O)C(CC(C)C)NS(=O)(=O)c2ccc3c(c2)oc(=O)n3C)c1 (stereo not given)
    -1% | 39%[activator]
- C=CCNC(=O)CN1CCN(C(=O)Cn2c(C)cc3ccccc32)CC1
    9% | -3%
- Cc1ccc(-c2nc3cc(C(C)C)ccc3o2)cc1NC(=O)c1cccs1
    211%[activator] | 31%[activator]
- O=C(O)c1cc(-c2ccc(Cl)c(Cl)c2)nc2ccccc12
    82%[activator] | ?
- O=C(O)CCCCCCC(=O)O
    -7% | 2%
- Cn1nc(C(C)(C)C)cc1NC(=O)c1cccc(F)c1
    0% | -6%
- O=C(O)C(Sc1ccc2ccccc2n1)c1ccccc1 (stereo not given)
    11% | 6%
- CCOc1ccc(NC(=O)CC2Nc3cccc4cccc(c34)NC2=O)cc1 (stereo not given)
    -13% | -9%
- CC(C)(C)c1ccc(-c2cc(=O)c3cc(NC(=O)c4ccncc4)ccc3o2)cc1
    -9% | 0%
- Cc1ccc(CNC(=O)C2CCCCN2S(=O)(=O)c2ccc(F)cc2)cc1 (stereo not given)
    ? | -9%
- CN=c1scc(C)n1/N=C/c1ccc(C#N)cc1
    174%[activator] | 9%
- Cc1ccc(C2=CC(c3ccccc3C)n3c(nc4ccccc43)N2)cc1 (stereo not given)
    21% | -10%
- CCOC(=O)c1[nH]c(C)c(CCC(=O)NCc2ccc(OC(C)C)cc2)c1C
    8% | -4%
- O=C(Cn1c(=O)oc2cc(S(=O)(=O)NCc3ccccc3)ccc21)NCc1ccc(Cl)cc1
    ? | 26%
- CCOc1ccc(CNC(=O)C2CCN(c3nc4c(C)cc(C)cc4s3)CC2)cc1
    -1% | -4%
- CCOc1ccc(N2CC(NC(=O)c3cc4ccccc4o3)CC2=O)cc1 (stereo not given)
    -1% | 13%
- Cc1nn(CC(=O)N2CCN(C(=O)CC(C)C)CC2)c(=O)c2ccccc12
    5% | -4%
- Cc1ccc(O)c(C(=O)/C=C/c2ccc(Cl)cc2Cl)c1
    0% | 0%
- CC(C(=O)N1CCN(Cc2ccccc2)CC1)n1nc(C(=O)O)c2ccccc2c1=O (stereo not given)
    -21% | -20%
- Cc1cc(Br)ccc1NC(=O)C(C)C
    3% | 4%
- CN(C)C(=O)c1cccc(C(F)(F)F)c1
    0% | -6%
- Nc1nccnc1C(=O)NCc1cccnc1-n1cncn1
    11% | 10%
- Cc1ccc(C)c(NC(=O)C(=O)NCCc2csc(-c3cccc(F)c3)n2)c1
    -11% | -9%
- CCN(CC)S(=O)(=O)c1ccc(-c2nc(C#N)c(NCc3cccnc3)o2)cc1
    -5% | 153%[activator]
- COc1ccc(S(=O)(=O)Nc2cccc(-c3ccc(N4CCCCCC4)nn3)c2)c(OC)c1
    96%[activator] | 259%[activator]
- Cc1c2cnn(CC(=O)Nc3cccc(C(F)(F)F)c3)c(=O)c2c(C)n1Cc1ccccc1Cl
    1% | -2%
- CN1CCSc2ccc(C(=O)NCc3ccccc3)cc21
    58%[activator] | 119%[activator]
- CC(C)CCOc1ccc(C2N=C(N)Nc3nc4ccccc4n32)cc1 (stereo not given)
    -21% | -18%
- Cc1cccc(N(C)S(=O)(=O)c2c(C(=O)N3CCCCCC3)c(C)n(C)c2C)c1
    -17% | 57%[activator]
- CN(C)CCN(Cc1ccco1)C(=O)c1oc2ccccc2c1NC(=O)c1cccc(F)c1
    -17% | 9%
- CCOc1ccc(-c2c(C)nn3c(C)c(C(=O)NCc4ccc(C)o4)cnc23)cc1OCC
    17% | 31%[activator]
- NC(=O)CSc1ccc2c(c1)OCCO2
    3% | 5%
- CCN(CCCNC(=O)c1ccc(Sc2ccc(F)cc2)c(NC(C)=O)c1)c1ccccc1
    -12% | 9%
- COc1ccc(NCc2nc3ccccc3n2CCOc2ccc(C)cc2)cc1
    -1% | ?
- CCCOC1(C(F)(F)F)NC(=O)N(c2cccc(Cl)c2)C1=O (stereo not given)
    -5% | 21%
- CCCN1C(C(=O)c2ccccc2)=C(OC(=O)c2ccc(C)cc2)c2ccccc2S1(=O)=O
    -26% | 1%
- Cc1cc(C)c(NC(=O)CN(C)S(=O)(=O)c2ccc3c(c2)c(=O)n(C)c(=O)n3C)c(C)c1
    -22% | -14%
- Cc1cc(Br)ccc1NC(=O)c1ccc2c(Cl)c3c(nc2c1)CCC3
    144%[activator] | -6%
- O=C(C1CCC(CNS(=O)(=O)c2ccc(Br)s2)CC1)N1CCN(c2ccccc2)CC1 (stereo not given)
    ? | ?
- COc1cc(NC(=O)C2CCN(S(=O)(=O)Cc3ccccc3)CC2)c(OC)cc1Cl
    -3% | -13%
- COc1ccc(S(=O)(=O)N2CCC(N3CCN(Cc4ccccc4)C(=O)C3=O)CC2)cc1
    -10% | -15%
- COc1ccc(S(=O)(=O)Nc2cc3c(cc2SC2CCCCC2)n(C)c(=O)n3C)cc1
    63%[activator] | 226%[activator]
- CCOC(=O)c1ccc2ncc(C(=O)OCC)c(Nc3ccccc3CC)c2c1
    3% | 4%
- Cc1ccc(F)c(Nc2ncnc3c2oc2ccccc23)c1
    166%[activator] | -4%

# (next part)
# Sequence of screens – 2A firefly | StopGo RLuc
- O=C(NCCc1cccc(Cl)c1)c1ccncc1
    78%[activator] | -6%
- NCc1ccccc1-c1ccc(CN2CCCC2)cc1
    -15% | -21%
- CCOC(=O)c1c(NC(=O)COc2ccc(Cl)cc2C)sc2c1CCCCC2
    14% | -5%
- Cc1nnc2c(N3CCN(c4ccccc4F)CC3)nc3ccc(C(=O)c4ccccc4)cc3n12
    -17% | -11%
- Cc1c(-c2ccccc2)[o+]c2ccccc2c1C#Cc1ccccc1
    -12% | 10%
- CN(C)C(=O)NCCCC#Cc1ccccc1
    16% | 0%
- COc1ccc(CCNC(=O)c2cnc3ccc(C)cn3c2=O)cc1
    -12% | -2%
- Cc1nc2sccn2c(=O)c1S(=O)(=O)NCc1ccc(F)cc1
    -20% | -2%
- CC(=O)c1cc2c(cc1NC(=O)CSc1nnc(C3CC3)o1)OCO2
    3% | 5%
- Cc1cccnc1NC(=O)c1ccc2nc(C)c(C)nc2c1
    30%[activator] | 4%
- COc1ccc(-n2nc3c(N4CCC(C(=O)NC5CCCCC5)CC4)nnc(C)c3c2C)cc1
    -12% | -6%
- CCOc1cc(C=O)ccc1OCc1ccccc1
    21% | 0%
- CC1=C(c2ccc(C)c(C)c2)S(=O)(=O)N(Cc2ccc(C(=O)NCc3ccc(C)cc3)cc2)C1=O
    -14% | -12%
- Cc1nnc(N2C(=O)C(O)=C(C(=O)c3cccs3)C2c2ccc(C(C)(C)C)cc2)s1 (stereo not given)
    170%[activator] | 20%
- Cc1ccc2c(CC(=O)Nc3ccc(S(=O)(=O)N4CCCCC4C)cc3)coc2c1 (stereo not given)
    -6% | 7%
- COC(=O)c1ccc(COC(=O)c2ccc(N3CCOCC3)nc2)cc1
    16% | -7%[1.06 µM]
- O=c1cc(-c2ccc(F)cc2)nc(SCc2nc(-c3cccc(C(F)(F)F)c3)no2)[nH]1
    -14% | -8%
- CCc1cc(C2CCCN2S(=O)(=O)c2cc(C)c(C)cc2C)on1 (stereo not given)
    10% | 43%[activator]
- CC1c2ccsc2CCN1C(=O)CNC(=O)c1ccc(Cl)cc1 (stereo not given)
    21% | 4%
- COc1ccc(C23CC4CC(CC(C4)C2)C3)cc1C(=O)NC(c1ccccc1)c1ccccc1
    0% | 2%
- COCCn1c(-c2ccc(Cl)cc2Cl)n[nH]c1=S
    0% | -9%[1.06 µM]
- COC(=O)c1cc(NC(=O)C(C)N(c2ccc(C)c(C)c2)S(C)(=O)=O)ccc1Cl (stereo not given)
    -3% | 8%
- COc1ccc(NS(=O)(=O)c2cc(Cl)ccc2Cl)cc1S(=O)(=O)N1CCOCC1
    18% | 110%[activator]
- COC(=O)c1ccc(C(=O)OCc2cccc(C(=O)OC)c2)cc1
    50%[activator] | 1%
- CCCn1c(CCC(=O)Nc2cc(OC)cc(OC)c2)nc2cccnc21
    -27% | 1%
- CCOc1ccc(CCNC(=O)CS(=O)(=O)Cc2nc(-c3ccccc3C)oc2C)cc1
    -28% | -3%
- O=Cc1cccn1Cc1ccccn1
    26% | 1%[1.06 µM]
- Cc1csc(SCC(=O)c2ccc3c(c2)CCO3)n1
    179%[activator] | 4%
- COc1ccccc1N(CC(=O)NCCSc1ccccc1)S(=O)(=O)c1ccc(C)cc1
    ? | 37%[activator]
- CC(Sc1c(Cl)cccc1Cl)C(=O)NCCC1=CCCCC1 (stereo not given)
    ? | 34%[activator]
- COC(=O)C1CN(C2CCCC2)CCS(=O)(=O)N1Cc1ccc(C)cc1 (stereo not given)
    -1% | 21%
- Cc1nn(-c2ccc(F)cc2)c(-n2cccc2)c1C(=O)N1CCN(c2ccccc2F)CC1
    6% | 0%
- O=C(O)C(c1c[nH]c2cc(Cl)ccc12)N1CCc2ccccc2C1 (stereo not given)
    -8% | -14%
- COc1ccc(N(CC(=O)Nc2cccc(C(C)=O)c2)S(=O)(=O)c2ccccc2)c(OC)c1
    11% | 206%[activator]
- CCOC(=O)c1[nH]c2c(c1Cc1ccccc1)C(=O)CC(c1ccc(Cl)cc1)C2 (stereo not given)
    -22% | 13%
- O=C(COC(=O)CSc1nc2ccccc2o1)NC1CC1
    15% | 0%
- CCOc1ccccc1NC(=O)c1ccc2c(c1)NC(=O)CS2
    16% | 4%
- O=C(/C=C/c1cccc2ccccc12)Nc1ccc(Cl)cc1C(F)(F)F
    0% | 0%
- CCOC(=O)C(C)Oc1ccc2c(=O)c(-c3ccc(OC)c(OC)c3)c(C(F)(F)F)oc2c1 (stereo not given)
    1% | -5%
- CCC(Sc1ccc(Cl)cc1)C(=O)O (stereo not given)
    11% | 3%

# Entries of single compounds, quoted from the list.
# `Cc1nn(-c2ccc(F)cc2)c(-n2cccc2)c1C(=O)N1CCN(c2ccccc2F)CC1` reads 2A firefly: 6%; StopGo RLuc: 0%
# `O=C(/C=C/c1cccc2ccccc12)Nc1ccc(Cl)cc1C(F)(F)F` reads 2A firefly: 0%; StopGo RLuc: 0%

# Part of the list above, with tabs.
SMILES	2A firefly	StopGo RLuc
CC(Sc1c(Cl)cccc1Cl)C(=O)NCCC1=CCCCC1 (stereo not given)	?	34%[activator]
CCCn1c(CCC(=O)Nc2cc(OC)cc(OC)c2)nc2cccnc21	-27%	1%
O=C(O)C(c1c[nH]c2cc(Cl)ccc12)N1CCc2ccccc2C1 (stereo not given)	-8%	-14%
COCCn1c(-c2ccc(Cl)cc2Cl)n[nH]c1=S	0%	-9%[1.06 µM]

# Additional records.
# Sequence of screens – 2A firefly | StopGo RLuc
- Cc1cc(C(=O)CN(C)CC(=O)Nc2ccccc2Br)c(C)n1CCc1cccs1
    ? | -23%
- CCN(CC(=O)NCc1cccs1)C(=O)c1ccc(S(=O)(=O)N(C)c2ccccc2)cc1
    -10% | 23%
- COc1ccc(CCNC(=O)c2ccc3c(c2)N(Cc2ccc(F)cc2)C(=O)CS3)cc1OC
    -20% | -20%
- CCN(CC)C(=O)COC(=O)c1ccccc1-c1ncc(-c2ccccc2F)o1
    57%[activator] | 75%[activator]
- Cc1nc(-c2ccc(F)cc2)sc1CCNC(=O)Cc1ccc(F)cc1
    ? | ?
- Cc1nc2cc(NC(=O)CC(C)(C(=O)O)C(C)C)ccc2o1 (stereo not given)
    0% | 31%
- CCOC(=O)c1[nH]c2ccccc2c1NC(=O)CN(CC)CC
    -6% | 11%
- CCOc1ccc(NC(=O)C(CC)Oc2ccc(F)cc2)c2cccnc12 (stereo not given)
    5% | -1%
- CC1CCc2noc(NC(=O)c3ccc(Cl)cc3)c2C1 (stereo not given)
    214%[activator] | 42%[activator]
- COc1ccc(-c2ccnc3[nH]n(-c4ccccc4)c(=O)c23)cc1
    -7% | -11%
- CCCC(=O)n1nc(-c2cccs2)nc1NCc1ccc(C)o1
    142%[activator] | -8%
- COC(=O)CSc1ncc2c(n1)-c1ccccc1N(Cc1cccc(F)c1)S2(=O)=O
    -9% | -6%
